Source: PubChem BioAssay
RGS16-Gao HTS – modulators of RGS16 binding to Galphao, primary screen, biochemical, human proteins, multiplexed bead flow cytometry; binding response (% of control), % at 10 µM; 0.38% of 220,000 active; bead-based flow cytometry RGS16-Galphao binding, fluorescence; actives lie on both sides; Regulator of G-protein signaling 16 (Homo sapiens) + Guanine nucleotide-binding protein …; AID 1441, 2008;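 active = below 25% or above 175%, edge rows of some plates excepted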;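 note: Galphao activated by GDP with aluminum fluoride before binding; 100% = wells without compound and 0% = beads without RGS; some results beyond the cut were filed as inactive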
Insulin prom inh – inhibitors of insulin promoter-driven GFP, primary screen, imaging, TRM-6 cells (human fetal islet line), eGFP reporter, cell count. reporter expression induced with tamoxifen. inhibition, % at 2 µM. 0.9% of 130,000 active. AID 1273, 2008;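 active = inhibition above the mean plus 3 SD, with well images judged a real hit on visual review, cut at about 60% in these data, passing the limit was not always enough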
GALR2 ag – GALR2 receptor agonists, primary screen, cell-based | AID 803, 2007 | GALR2-expressing cells, agonist activation read-out | Galanin receptor type 2 (Homo sapiens), O43603 | activation, %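 (tested at 5 µM)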 | 0.48% of 140,000 active;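 active = above mean plus 3 SD of all compounds, about 5% in these data, not always enough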;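 note: 0% = vehicle buffer wells and 100% = reference agonist at full effect; tested in CHO reporter cells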
HSV augment – enhancers of HSV replication in host cells, fold increase, host cell viability | HSV replication augmentation in cells | maximum fold increase | 0.005% of 220,000 active;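 active = peak rise of 1.5-fold or more in the series; tested in PC3 cells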;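 note: first round at 10 µM; read as green reporter fluorescence; hits show the peak of a series up to 25 µM; 1 = signal of infected wells without compound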
PKD1 kinase inh – inhibitors of human PKD1 kinase, biochemical, fluorescence polarization; PKD1 kinase fluorescence polarization assay; inhibition, %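 (about 10 µM by stock and volumes)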; 0.056% of 200,000 active; Serine/threonine-protein kinase D1 (Homo sapiens), Q15139;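 active = inhibition of 50% or more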;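 note: controls were vehicle for no effect and a reference inhibitor for full effect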
Target sequence (Q15139 whole entry, looked up): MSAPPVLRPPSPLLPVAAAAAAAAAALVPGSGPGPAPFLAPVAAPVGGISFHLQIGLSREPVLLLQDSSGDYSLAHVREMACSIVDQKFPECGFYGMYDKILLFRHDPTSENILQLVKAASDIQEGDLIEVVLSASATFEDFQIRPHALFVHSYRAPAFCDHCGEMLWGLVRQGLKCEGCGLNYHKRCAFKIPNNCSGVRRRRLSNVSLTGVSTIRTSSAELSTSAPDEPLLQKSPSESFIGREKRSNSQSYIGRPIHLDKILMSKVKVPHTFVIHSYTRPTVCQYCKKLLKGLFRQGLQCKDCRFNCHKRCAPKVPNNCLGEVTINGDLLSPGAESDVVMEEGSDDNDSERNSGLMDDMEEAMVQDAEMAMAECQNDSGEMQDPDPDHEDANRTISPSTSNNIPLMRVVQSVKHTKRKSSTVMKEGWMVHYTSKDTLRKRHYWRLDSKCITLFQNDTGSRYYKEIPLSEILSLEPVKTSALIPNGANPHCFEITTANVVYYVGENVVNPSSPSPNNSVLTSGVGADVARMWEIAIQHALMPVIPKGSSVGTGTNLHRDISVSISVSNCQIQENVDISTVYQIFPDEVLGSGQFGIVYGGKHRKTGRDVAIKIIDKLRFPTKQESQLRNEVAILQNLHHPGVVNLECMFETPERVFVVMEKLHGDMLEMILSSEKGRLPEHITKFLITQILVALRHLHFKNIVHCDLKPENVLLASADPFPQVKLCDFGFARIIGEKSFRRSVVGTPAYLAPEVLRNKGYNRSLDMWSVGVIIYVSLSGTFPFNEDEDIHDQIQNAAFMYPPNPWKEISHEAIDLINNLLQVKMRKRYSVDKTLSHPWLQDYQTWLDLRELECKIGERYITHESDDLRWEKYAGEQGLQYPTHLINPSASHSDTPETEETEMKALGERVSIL
Insulin prom inh cell count – second read-out of Insulin prom inh, no call of its own (marks repeat the call); normalized cell count, %; measured here: cell count, toxicity; reference of the scale not given here;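 cells exposed to compound for 48 h; stained nuclei by imaging scaled within each plate; lower means fewer cells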
HSV augment primary fold – second read-out of HSV augment, no call of its own (marks repeat the call); fold increase; compound at 10 µM; measured here: primary screen fold increase 10 uM; tested in PC3 cells;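 GFP signal in the first replicate; 1 = infected wells without compound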
The depositor's hits bear a star; i = inactive; . = not tested or not shown; & = joins results of further samples. Not a hit list; overall some 1.1% were active at least once.

SMILES	RGS16-Gao HTS	Insulin prom inh	Insulin prom inh cell count	GALR2 ag	HSV augment	HSV augment primary fold	PKD1 kinase inh
CN(C)S(=O)(=O)c1cccc(C(=O)Nc2cccnc2)c1	111	47	142	-3.3	i	0.95	-12
Cc1ccc(C(=O)/C=C/Nc2ccc([N+](=O)[O-])cc2Br)cc1	92	-70	68	-2.9	i	0.88	-4
Cc1cc(C(=O)CSc2n[nH]c(N)n2)c(C)n1C1CC1	94	18	148	-1.9	i	0.91	0
O=C1CSCN1c1ccc(Cl)cc1	100	0	80	.	i	0.91	5
COC(=O)[C@@H]1CC[C@H](C)[C@@H](c2ccc(C)cc2)N1C(=O)c1ccc(/C=N/O[C@@H](C)CN2CCCCc3nc(C)c(C)cc32)cc1	92	0	69	-0.2	.	.	-1
O=C(CC1C(=O)NCCN1Cc1ccoc1)NCCCn1ncc2ccccc21 (centres undefined)	103	.	.	.	i	1.1	-3
O=C(CCSCCC(=O)NCCN1CCOCC1)NCCN1CCOCC1	105	7	99	-1.8	i	0.94	-12
CC(=O)C1=NN(c2ccccc2)C(c2ccc3c(c2)OCO3)N1c1ccccc1 (centres undefined)	85	20	85	4.1	i	1.1	-5
CN(C)S(=O)(=O)N1CCc2ccccc2C1	92	.	.	-0.4	i	0.74	-10
COc1ccc2nc(N/C(N)=N/C(=S)Nc3ccc(C)c(C)c3)nc(C)c2c1	102	.	.	1.4	i	0.69	0
CC(C)c1nc(SCC(=O)c2c[nH]c3ccccc23)n[nH]1	99	.	.	.	i	1	.
CC(COc1ccccc1)N1CCC(CO)(Cc2ccccc2)CC1 (centres undefined)	99	.	.	.	i	0.88	-3
COc1ccc(NCc2nnc(SCC(=O)N3CCCc4ccccc43)n2C)cc1	106	-15	95	-0.2	i	1.1	3
CCOC(=O)c1c(NC(=S)N2CCCCC2)sc2c1CCN(C(=O)OCC)C2	90	.	.	.	i	0.81	.
COc1ccccc1NC(=O)CCSc1ccc(C)cc1	104	0	121	.	i	1	2
COc1ccc(/C=N/n2cncn2)cc1CSc1ccccn1	97	-38	79	-1.9	i	0.99	2
CCOC(=O)CNC(=O)CSc1ncnc2c1nnn2-c1ccc(F)cc1	98	0	93	0.1	i	0.74	-3
CCOC(=O)c1ccc(NC(=O)Cn2nnc3ccccc32)cc1	97	.	.	-1.6	i	0.89	-11
COc1ccc(C(NC(C)=O)c2c(O)ccc3ccccc23)cc1OC (centres undefined)	102	.	.	-0.5	i	1.1	-5
CCCCCOc1ccc(C(=O)NC(C(=O)O)C(C)C)cc1 (centres undefined)	110	.	.	-2.1	i	1	12
COc1ccc(-c2[nH]ncc2Oc2ccccc2OC)c(O)c1	107	-100	208	-1.0	i	0.91	3
COc1ccc(-n2cnc3cc(NCc4ccco4)ccc32)cc1	101	27	74	-3.3	i	0.89	4
COc1ccc(/C(C)=N/NC(=O)c2ccccc2OCc2ccccc2)c(OC)c1	96	.	.	.	i	0.94	10
COc1ccc(C2=NN(C(=O)CSc3nnc(C)n3C)C(c3ccco3)C2)cc1 (centres undefined)	96	.	.	.	i	0.91	-7
CC1CC(CC(=O)Nc2nc(-c3ccccc3)cs2)C(=O)O1 (centres undefined)	104	.	.	.	i	1	-8
CCn1nc(C)c(NC(=O)c2cnn3c(C(F)F)cc(-c4ccccc4)nc23)c1C	96	-36	140	.	i	0.85	5
C/C(CC(=O)Nc1ccccn1)=N\NC(=O)c1ccccc1	89	0	67	-1.6	i	0.97	1
CCCCCCn1c(N2CCN(c3ccccc3)CC2)nc2c1c(=O)n(C)c(=O)n2C	101	0	73	-2.6	i	0.77	4
Cn1nnnc1SCC(=O)Nc1ccc(N2CCOCC2)cc1	106	45	96	-1.7	i	1.1	-4
O=C(NN1C(=O)C2C3C=CC(O3)C2C1=O)c1cccc(Br)c1 (centres undefined)	103	-29	55	.	i	1	-1
Cc1ccc(S(=O)(=O)N2CCCC2CO)cc1 (centres undefined)	101	.	.	-1.2	i	0.97	-14
CC(=O)N1CCc2cc(S(=O)(=O)Nc3cccc(C(F)(F)F)c3)ccc21	103	-32	65	0.2	i	1.1	-11
Cc1ccc(SCCNC(=S)Nc2ccc(C)c(C)c2)cc1	100	-3	280	-4.2	i	1.1	-5
CCCCN1C(=O)C2NN=C(C(=O)OC)C2C1=O (centres undefined)	102	-64	83	-0.5	i	0.95	-3
O=C(OCCOc1ccccc1)c1n[nH]c2ccccc12	106	.	.	.	i	0.95	.
O=C(Nc1nc2ccccc2n1CCN1CCCCC1)C1CCCCC1	99	-23	126	-0.6	i	1	-8
COc1ccc(N2CC(C(=O)Nc3nccs3)CC2=O)cc1 (centres undefined)	125	59	97	-2.0	i	0.88	-2
O=C(Cn1ncc2c(=O)oc3ccccc3c21)N1CCC(N2CCCCC2)CC1	104	.	.	-0.6	i	0.75	-6
O=C1COc2ccc(C(=O)COc3ccc([N+](=O)[O-])cc3)cc2N1	59	.	.	.	i	0.95	.
O=C(C1CC1)N1CCc2cc(S(=O)(=O)NCC3COc4ccccc4O3)ccc21 (centres undefined)	100	0	121	-3.4	.	.	-14

Reprinted from the results shown, three compounds:
SMILES	RGS16-Gao HTS	Insulin prom inh	Insulin prom inh cell count	GALR2 ag	HSV augment	HSV augment primary fold	PKD1 kinase inh
O=C(Cn1ncc2c(=O)oc3ccccc3c21)N1CCC(N2CCCCC2)CC1	104	.	.	-0.6	i	0.75	-6
O=C1COc2ccc(C(=O)COc3ccc([N+](=O)[O-])cc3)cc2N1	59	.	.	.	i	0.95	.
O=C(C1CC1)N1CCc2cc(S(=O)(=O)NCC3COc4ccccc4O3)ccc21 (centres undefined)	100	0	121	-3.4	.	.	-14

Some of the entries above, reformatted:
Molecule | RGS16-Gao HTS | Insulin prom inh | Insulin prom inh cell count | GALR2 ag | HSV augment | HSV augment primary fold | PKD1 kinase inh
COc1ccc(C2=NN(C(=O)CSc3nnc(C)n3C)C(c3ccco3)C2)cc1 (centres undefined) | 96 | . | . | . | i | 0.91 | -7
CC1CC(CC(=O)Nc2nc(-c3ccccc3)cs2)C(=O)O1 (centres undefined) | 104 | . | . | . | i | 1 | -8
CCn1nc(C)c(NC(=O)c2cnn3c(C(F)F)cc(-c4ccccc4)nc23)c1C | 96 | -36 | 140 | . | i | 0.85 | 5
C/C(CC(=O)Nc1ccccn1)=N\NC(=O)c1ccccc1 | 89 | 0 | 67 | -1.6 | i | 0.97 | 1
CCCCCCn1c(N2CCN(c3ccccc3)CC2)nc2c1c(=O)n(C)c(=O)n2C | 101 | 0 | 73 | -2.6 | i | 0.77 | 4
Cn1nnnc1SCC(=O)Nc1ccc(N2CCOCC2)cc1 | 106 | 45 | 96 | -1.7 | i | 1.1 | -4
O=C(NN1C(=O)C2C3C=CC(O3)C2C1=O)c1cccc(Br)c1 (centres undefined) | 103 | -29 | 55 | . | i | 1 | -1

(further entries)
SMILES	RGS16-Gao HTS	Insulin prom inh	Insulin prom inh cell count	GALR2 ag	HSV augment	HSV augment primary fold	PKD1 kinase inh
NC(=O)CC(NC(=O)Cc1cccc2ccccc12)c1ccc(NCc2ccc(F)cc2)c([N+](=O)[O-])c1 (centres undefined)	100	.	.	.	i	0.97	.
O=C1CC(N2CCN(c3cccc(C(F)(F)F)c3)CC2)C(=O)N1c1ccccc1 (centres undefined)	98	-8	126	1.2	i	1	3
COc1c(C)oc2cc(O)ccc2c1=O	115	14	80	-1.3	i	0.78	8
Cn1nc(CC(=O)NC2CCCCC2)c2ccccc2c1=O	99	-16	88	-2.5	i	0.98	-9
CCCSc1cc(NCCOC(C)=O)c([N+](=O)[O-])c2nonc12	95	5	94	-0.6	i	1.1	6
S=c1[nH]nc(C2CCCCC2)n1Cc1ccccc1	98	.	.	.	i	0.95	-9
Cc1nc2sc(C(c3cccc(F)c3)N3CC(C)OC(C)C3)c(O)n2n1 (centres undefined)	103	.	.	-0.6	.	.	-3
O=C(COc1cccnc1[N+](=O)[O-])NCc1cccs1	106	.	.	.	i	0.95	0
O=C(CC1C(=O)NCCN1Cc1c(F)cccc1Cl)NC1CCCC1 (centres undefined)	103	-67	75	.	i	0.94	-4
COc1ccc2c3c1O[C@H]1C[C@@H](O)C=C[C@@]31CCN(C)C2	102	.	.	.	i	1.1	.
CCN1CCN(c2ccc([N+](=O)[O-])cc2C(=O)c2ccc(Cl)cc2)CC1	100	.	.	-0.7	i	0.93	8
Cc1sc(NC(=O)CN2CCN(c3ccccn3)CC2)c(C#N)c1C	105	-180	41	0.9	i	0.97	-6
NC(=O)/C(=C\c1cccnc1)NC(=O)c1ccccc1	99	-56	129	.	i	0.9	-8
CCOC(=O)c1c(NC(=S)Nc2ccc(F)cc2)sc2c1CCC2	105	39	117	-0.6	i	0.89	-6
CN(Cc1nnc(SCC(=O)NCCc2ccccc2)n1C)S(=O)(=O)c1ccccc1	71	-83	80	-1.3	i	0.98	1
COc1ccccc1N(CC(=O)NCc1cccnc1)S(C)(=O)=O	158	50	87	-2.8	i	1.1	-13
COc1ccccc1Oc1ccc2c(c1)C(=O)N(c1cccc(O)c1)C2=O	94	.	.	-0.5	i	0.88	-1
Cc1ccc(C(C)C)c(OCc2ccc(C(=O)N/N=C/c3ccc(C(=O)O)cc3)cc2)c1	107	.	.	.	i	1	.
Cc1ccc(C)c(NC2=NC3(CCCCC3)N=C(N)N2)c1	.	33	101	-3.9	i	0.73	-1
N#CCCSc1nc(N2CCOCC2)c2c(c1C#N)CCCC2	111	64	144	3.4	i	0.83	8
COc1cc(-c2nc(CN(C)Cc3nnc(C)o3)c(C)o2)ccc1F	104	.	.	.	i	0.94	6
Cc1ccc(CN=C2Nc3ccccc3CS2)cc1	94	-46	70	-3.4	i	0.93	-10
CCOC(=O)c1c(C)n(C)c2cc([N+](=O)[O-])c(O)c([N+](=O)[O-])c12	94	.	.	.	i	0.97	.
COc1ccc([N+](=O)[O-])cc1N(CC(=O)NCC1CCCO1)S(C)(=O)=O (centres undefined)	101	-11	94	0.2	i	0.96	-7
Cc1cc(C(=O)OC(C)C(=O)Nc2nc(-c3ccccc3)cs2)c(C)o1 (centres undefined)	105	24	138	-2.6	i	0.9	5
CC(=O)/C(N=Nc1cc2c(cc1[N+](=O)[O-])OCCO2)=C(\C)O	101	.	.	.	i	0.99	-5
CC(C)CCNC(=O)c1ccc(C2SCC(=O)N2Cc2ccco2)cc1 (centres undefined)	104	-224	60	-2.6	i	0.87	-4
C#CCSC1=C(C#N)C(c2cccs2)C(C(=O)OCC)=C(C)N1 (centres undefined)	103	.	.	0.1	i	0.96	-3
O=C(Nc1cnn(Cc2ccccc2)c1)c1nc2ncccn2n1	112	.	.	-2.7	i	0.96	-6
COc1ccc(Br)cc1C(=O)N/N=C/c1ccc([N+](=O)[O-])cc1	99	-36	167	.	i	0.77	-5
Cc1ccc2c(c1)c1c3n2CCN=C3CCC1	101	-19	127	-1.7	i	0.96	-6
CCc1noc(C)c1C(=O)Nc1nc(-c2ccc(Cl)cc2Cl)cs1	107	7	103	-0.4	i	1	-2
Cn1c(SCC(=O)NC(c2ccccc2)c2ccccc2)nnc1-c1cccs1	115	4	81	-1.1	i	0.92	2
CCOC(=O)c1nnn(CC(=O)Nc2cccc(OC)c2)c1C(=O)OCC	100	33	102	-0.7	i	1	-6
Cc1ccc(C(=O)C[n+]2cc(-c3ccccc3)n3c2CCCCC3)cc1	92&102	-13&50	45&61	-0.9&-2.3	i	0.84&1	-12&-9
CN(c1ccccc1)S(=O)(=O)c1ccc(C(=O)Nc2nnc(C3=COCCO3)o2)cc1	107	29	150	.	i	0.98	0
CCNc1nc(OCC)nc(N2CCC(Cc3ccccc3)CC2)n1	83	-20	94	-1.1	i	0.97	-2
Cc1ccc(-c2nc3c(c(=O)c4ccccc4n3C)c(=O)n2Cc2ccco2)cc1	98	.	.	.	i	1.1	.
